Sfp inh: qHTS Assay for Inhibitors of Bacillus subtilis Sfp phosphopantetheinyl transferase (PPTase) | 4'-phosphopantetheinyl transferase ffp (Bacillus subtilis), Q9F4F7 | Biochemical Sfp PPTase activity, qHTS | Potency, µM, without a hit: max response, negative = inhibition, usual class: inhibitors | 310,000 tested, 3.5% active | AID 1490, 2009; active = well fitted inhibition curve with a large enough effect; inconclusive = small, poorly fitted or top-dose-only effect, or another doubt; inactive = no such curve, though single readings can be large or run the other way;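 note: the enzyme is Sfp with the accession as filed and its product quenches rhodamine fluorescence; potency is the fitted concentration of half-maximal effect; 0% = enzyme reaction without inhibitor and -100% = no enzyme wells; top concentration of the series not given in the record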
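With Hepes-Na pH 7.6 buffer containing 10 mM MgCl2, Sfp (15 nM) modified BHQ-2-YbbR (12.5 uM) using rhodamine-CoA (5 uM). Two reads 30 minutes apart at 525/598 nm yielded each well's rate.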
gsp agonist: qHTS for Agonist of gsp, the Etiologic Mutation Responsible for Fibrous Dysplasia/McCune-Albright Syndrome: qHTS; AID 624287, 2012; gsp mutant cells, cAMP HTRF, 30 min; control for the full effect not named in the record; Potency, µM (titrated, usually from 76.9 µM), without a hit: at the top dose activation (cAMP increase), hits mostly activators; 340,000 tested, 0.13% active; active = well fitted activation curve with a large enough effect; inconclusive = small, poorly fitted or top-dose-only effect, or another doubt; inactive = no such curve, though single readings can be large or run the other way; cell line not stated here;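 note: phosphodiesterase inhibitor Ro 20-1724 added with compounds to block cAMP breakdown; potency is the fitted concentration of half-maximal effect; nearly all actives have a fitted effect of over 60% in size; about a fifth of the inactives were tested at one dose only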
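Cells stably selected in G418 were plated at 2000/well, grown 16-24 hr, then given compounds in DMSO with the PDE inhibitor […] (300 uM solution added) for 30 min at 37C; cAMP was read by HTRF.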
TRPV1 PAM: HTS Assay for Compounds that Act as Potentiators of the Vanilloid Receptor 1; TRPV1-expressing cells, Fluo-8 calcium influx, capsaicin EC20 potentiation; host cell line not named in the record; control for the full effect not named in the record; potentiation, % at 8.33 µM; Transient receptor potential cation channel subfamily V member 1 (Homo sapiens), Q8NER1; 320,000 tested, 0.02% active; AID 540277, 2011; active means potentiation above 80%; inconclusive means 30% to 80%; inactive means below 30%; note: 0% is about no effect
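TRPV1-expressing cells were cultured overnight at 35.5C and loaded with Fluo-8 calcium dye for 40 to 90 min at room temperature. After a 10 s baseline, compound was added and calcium influx was read kinetically for 3 min (ex 480/em 520 nm).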
D2 potentiator: Beta-Arrestin HTS for Positive Allosteric Modulators of the Human D2 Dopamine Receptor: Potentiators | D(2) dopamine receptor (Homo sapiens), P14416 | DiscoveRx D2 beta-arrestin cells, luminescence, 90 min; 100% = 57 uM dopamine signal | potentiation, % (no concentration beside the values) | 360,000 tested, 0.23% active; active = potentiation of 50% or more; inconclusive = 30% to 50%; inactive = 30% or less;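 note: compound concentration not given in the record; tested on top of an EC20 dose of dopamine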
Target sequence (P14416 whole entry, looked up): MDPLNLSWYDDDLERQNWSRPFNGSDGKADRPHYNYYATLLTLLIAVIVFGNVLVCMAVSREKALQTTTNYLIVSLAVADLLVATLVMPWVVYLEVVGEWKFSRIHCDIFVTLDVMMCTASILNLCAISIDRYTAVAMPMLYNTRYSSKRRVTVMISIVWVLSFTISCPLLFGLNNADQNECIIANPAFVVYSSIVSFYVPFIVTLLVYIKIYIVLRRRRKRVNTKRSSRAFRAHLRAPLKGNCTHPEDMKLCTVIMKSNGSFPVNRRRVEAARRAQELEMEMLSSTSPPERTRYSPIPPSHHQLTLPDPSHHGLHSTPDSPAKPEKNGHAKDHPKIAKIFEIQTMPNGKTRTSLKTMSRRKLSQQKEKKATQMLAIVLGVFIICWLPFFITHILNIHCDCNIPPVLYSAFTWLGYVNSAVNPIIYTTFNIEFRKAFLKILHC
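D2 cells co-treated with compound plus 50 nM dopamine (EC20) for 90 min at 37 deg C to detect potentiation. Beta-arrestin recruitment was read as enzyme-fragment luminescence after 1 h at ambient temperature. Full response was set by 57 uM dopamine.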
ClpP mod: qHTS Assay for Activators of ClpP; ATP-dependent Clp protease proteolytic subunit (Bacillus subtilis (strain 168)), P80244; 340,000 tested, 1.9% active; Potency, µM (highest dose often 57.5 µM), inactives show top-dose activity change, negative = active; purified B. subtilis ClpP, FRET peptide cleavage, 20 min; active = well fitted falling curve with a large enough effect; inconclusive = small, poorly fitted or top-dose-only effect; inactive = no such curve, though single readings can be large or run the other way; note: potency is the fitted concentration of half-maximal effect; the source files actives as falling curves though it sought activators and does not explain the sign; nearly all actives have a fitted effect of over 65% in size; many hits overshoot -100%
Target sequence (P80244 whole entry, looked up): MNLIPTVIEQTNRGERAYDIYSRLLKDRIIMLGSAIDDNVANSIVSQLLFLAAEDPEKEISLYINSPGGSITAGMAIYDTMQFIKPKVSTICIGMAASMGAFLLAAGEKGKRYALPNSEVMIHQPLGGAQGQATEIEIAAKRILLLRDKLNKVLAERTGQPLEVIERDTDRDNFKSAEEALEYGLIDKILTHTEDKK
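ClpP 10 microg/mL final, pH 8 Tris/KCl buffer with BSA, glycerol, Tween-20; compound pinned in; FRET-FV substrate; RT 20 min; Ex320/Em430; ΔFRET vs ADEP 5.8 microM, DMSO, no enzyme.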
Menin MLL FP FL: qHTS Assay for Inhibitors Targeting the Menin-MLL Interaction in MLL Related Leukemias: Competition With Fluorescein Labeled MLL-derived Peptide; 290,000 tested, under 10 active; FP activity change, % at 61.4 µM; Fluorescence polarization, fluorescein-MLL peptide displacement from menin; inconclusive = falling polarisation curve, or a change in total fluorescence; inactive = total fluorescence flat and polarisation flat or rising; no compound was filed as active; the % refers to the polarisation; negative = inhibition;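 note: % of control where 0% means no effect; inhibitors lower the polarisation; unlabelled MLL peptide was the positive control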
gsp antagonist: qHTS for Antagonists of gsp, the Etiologic Mutation Responsible for Fibrous Dysplasia/McCune-Albright Syndrome: qHTS | gsp-mutant cells, cAMP HTRF, 30 min; control for the full effect not named in the record | Potency, µM (highest dose often 76.9 µM), for the others: at the highest dose activity change, negative = inhibition, usual class: inhibitors | 340,000 tested, 0.4% active | AID 624288, 2012; active = falling curve of any shape with a large fitted effect; inconclusive = falling curve, mostly with a smaller effect; inactive = flat or rising curve; cell line not stated here;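 note: intracellular cAMP measured with PDE inhibitor Ro 20-1724 present during compound exposure; potency is the fitted concentration of half-maximal effect; % is set by controls: 0 for no effect and ±100 for the full control effect; nearly all actives have a fitted effect of over 65% in size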
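Cells in G418 medium, seeded 16-24 h, 37C; buffer exchange to DPBS + 1 mM CaCl2, 0.5 mM MgCl2, 0.05% BSA; cpds in DMSO + […] (300 uM stock), 30 min 37C; HTRF cAMP detection.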
Starred values were filed as active, the others as inactive; ? = inconclusive; / = no result given; & = joins results of further samples; [ ] = another dose, or the depositor's remark.

The line under a structure holds: Sfp inh | gsp agonist | TRPV1 PAM | D2 potentiator | ClpP mod | Menin MLL FP FL | gsp antagonist
COc1ccc(N2CCN(C3CCCN(C(=O)CN4CCCCC4=O)C3)CC2)cc1 (stereo unspecified)
    4% | 0% | -3 | -1 | / | -3.2 | 3%
CCCN1CCN(C(=O)CN2C(=O)CC(C)(C)S(=O)(=O)c3ccccc32)CC1
    6% | -2% | -6 | 6 | 0.0% | 0.9 | 12%
CCOC(=O)C1=C(c2ccccc2)Nc2ncnn2C1c1cccc(OC)c1OC (stereo unspecified)
    7% | 2% | -29 | -2 | -0.2% | 5.0 | -23%
O=C(COC(=O)c1ccc(F)cc1F)Nc1cccc(S(=O)(=O)N2CCOCC2)c1
    / | 21% | -7 | -16 | -1.7% | / | 4%
O=C(O)c1cccc(N2C(=O)c3ccc(C(=O)c4cccc([N+](=O)[O-])c4)cc3C2=O)c1
    -3% | 17% | -13 | 1 | / | -4.5 | ?
COc1ccc(C2SCC(=O)N2CCCN(C)C)cc1 (stereo unspecified)
    2% | -14% | 2 | -12 | ? | 2.2 | 15%
CC(=O)Nc1cccc2c1C(=O)N(c1ccc(OC(C)=O)cc1)C2=O
    14% | -2%[15.4 µM] | 2 | -1 | / | -4.7 | -7%
CC(CO)N1CCS(=O)(=O)CC1 (stereo unspecified)
    10% | -18% | 2 | 21 | -0.9% | 5.0 | -3%
CC(C)N(CCNC(=O)c1ccc(OCC2CCCO2)cc1)C(C)C (stereo unspecified)
    16% | -53% | 17 | 0 | / | -4.2 | 16%
CCOC(=O)CC(=O)CSc1ncnc2c1nnn2-c1ccc(OC)cc1
    -7% | 4%[15.4 µM] | 6 | -3 | / | 1.4 | -22%
OC1(C#CCN2CCCC2)CCCCC1
    2% | -6% | -3 | -5 | -2.7% | -3.7 | 7%
CCc1ccc(N2CC(C(=O)NCc3ccc4c(c3)OCO4)CC2=O)cc1 (stereo unspecified)
    15% | -38%[inhibitor] | -7 | -3 | -0.2% | -0.9 | -3%
Cc1c(Cl)cccc1NC(=O)C1NC(=O)CC1c1ccccc1 (stereo unspecified)
    5% | -179%[inhibitor] | 12 | -3 | -2.8% | 0.2 | 10%
Cc1ccccc1N1CCN(C2CCCN(C(=O)CCN3CCCCO3)C2)CC1 (stereo unspecified)
    -3% | 12%[15.4 µM] | -7 | -17 | -2.6% | -11 | 8%
Cc1ccc(CN2CC(C(=O)Nc3ccc(S(=O)(=O)N4CCCCC4)cc3)CC2=O)cc1 (stereo unspecified)
    / | -5%[15.4 µM] | / | -1 | -2.9% | / | -9%
CCOC(=O)C1=C(C)OC(N)=C(C#N)C1c1cc2ccccc2nc1N1CCCCC1 (stereo unspecified)
    8% | ? | -4 | -25 | -15% | ? | 26%
Cc1ccc(C(C)C)c(OCC(=O)NNC(=O)Cc2ccc(S(=O)(=O)N3CCOCC3)s2)c1
    / | -15% | / | 1 | / | / | -14%
CCC(C)NC(=O)C(CCSC)NC(=O)c1ccccc1 (stereo unspecified)
    14% | 25% | 7 | 1 | 1.1% | 2.0 | 4%
CCN(CC)CCNC(=O)CCn1nc(-c2ccc(Cl)cc2)ccc1=O
    4% | 5% | -1 | -8 | -11% | -0.2 | 8%
COc1cc2c(cc1OC)-c1cc(NC3CCCCCCC3)nc(=O)n1CC2
    0% | -13% | -4 | -29 | ? | 8.3 | 15%
O=C(c1c[nH]c(C(=O)C(Cl)(Cl)Cl)c1)c1ccccc1F
    1% | -61%[inhibitor] | -8 | -9 | -0.5% | 0.9 | 12%
CCN(CC)S(=O)(=O)c1ccc(-c2nnc(SCC(=O)Nc3nc(C)cs3)o2)cc1
    -12% | -3% | 27 | -14 | 6.9% | -1.6 | -3%
CCCn1nc(C(=O)OCC(=O)Nc2cccc(S(N)(=O)=O)c2)c2ccccc2c1=O
    20% | ? | -3 | 21 | -1.1% | 0.2 | -21%
O=C(Cc1n[nH]c(=O)c2ccccc12)N1CCN(c2ccc(F)cc2)CC1
    22% | 6%[15.4 µM] | -16 | -6 | 0.5% | -2.3 | -10%
COc1cccc(NC(=O)CCNS(=O)(=O)c2cccc3nsnc23)c1
    13% | 7%[15.4 µM] | 16 | -7 | / | 0.2 | 0%
CCOC(=O)c1cn2cccnc2n1
    10% | -25% | 12 | -9 | ? | -1.0 | 5%
Cc1cc(C(=O)OCC(=O)c2c(N)n(C)c(=O)n(C)c2=O)c(C)o1
    7% | ? | -7 | -3 | 0.2% | 2.0 | -2%
Cc1c(C)c2c(OCC(=O)NC3CC3)cc3c(c2oc1=O)CCC(C)(C)O3
    14% | / | -19 | -22 | 4.5% | -4.3 | -8%
c1ccc(-c2nc3cnccn3c2Nc2ccc3c(c2)OCCO3)cc1
    6% | -1% | 5 | 20 | 1.3% | 3.4 | ?
COc1ccc(CNC(=O)C[C@H]2C[C@H](C(=O)N3CCOCC3)[C@@]3(CCC4CCCC4)c4[nH]c5ccc(Cl)cc5c4CCN3C2=O)cc1OC
    / | / | / | -10 | -4.0% | / | -17%
O=C1C2CC=C(Cl)CC2C(=O)N1CCN1CCOCC1 (stereo unspecified)
    11% | 26% | -1 | -7 | 0.3% | 5.4 | 11%
Cc1cc(=O)[nH]c(SCCCOc2ccc(F)cc2)n1
    -2% | 4% | -4 | -13 | -1.0% | -0.1 | ?
O=C1NC(=O)C(c2ccccc2)(C2CCCC2)N1 (stereo unspecified)
    / | 4% | / | 0 | / | / | 9%
NC(=O)Cn1c(=O)n(Cc2ccccc2)c(=O)c2cccnc21
    12% | 1% | 3 | -14 | -24% | 9.6 | 6%
CCc1nc(SCC(=O)Nc2ccc(C(=O)O)cc2)n[nH]1
    9% | -18% | -3 | -9 | 0.1% | 0.2 | 4%
COc1ccccc1OCC(=O)O
    23%&16% | -34%&-52%[inhibitor] | 4&5 | 8&-7 | -3.0%&-0.1% | 0.5&2.8 | -4%&10%
O=C(O)c1cccc(-n2cccc2/C=C2/NC(=O)N(c3ccc(Cl)cc3)C2=O)c1
    14µM* | -15%[15.4 µM] | 5 | -10 | / | ? | -12%
Cc1noc(C)c1COc1ccccc1C(=O)N(C)CC(=O)Nc1cccc(F)c1
    / | -1% | 5 | -32 | 1.6% | / | -5%
Cc1ccc(C)c(N2CCN(C(=O)C3CCCN(S(=O)(=O)c4c(C)noc4C)C3)CC2)c1 (stereo unspecified)
    21% | -13% | -9 | -4 | -0.6% | 2.9 | ?
CCCc1c(C)c2c(C)[nH]nc2oc1=O
    25% | -15% | -6 | 1 | -18% | 2.2 | 6%
Cc1ccc(C(C)C)c(OCc2n[nH]c(=S)o2)c1
    19% | 21% | -2 | -7 | / | -1.1 | -6%
NC(=O)c1ccc(NC(=O)COC(=O)CCSc2ccccc2)cc1
    8% | -13%[15.4 µM] | / | -2 | / | 6.0 | 5%
c1ccc(-n2nnc3ccccc32)nc1
    7% | -28% | -19 | 0 | 0.8% | -0.2 | -10%
COc1ccc(S(=O)(=O)N2CCN(c3ncnc4c(-c5ccccc5)nsc34)CC2)cc1
    -5% | -7% | 8 | 3 | ? | -0.1 | -17%
CN1CCN(Cc2nc3c(c(=O)n(C)c(=O)n3C)n2CCCc2ccccc2)CC1
    8% | 22% | -13 | -19 | 1.9% | 2.6 | 6%
CC1CCN(CCCn2c(=S)[nH]c3c(sc4ccccc43)c2=O)CC1
    -23% | 56%[15.4 µM] | -6 | -17 | 1.0% | 2.0 | 25%
O=C(COC(=O)c1cc(=O)[nH]c2ccccc12)Nc1nccs1
    11% | 7% | -9 | -15 | 6.4% | 4.2 | 6%
O=C(Nc1cccc(Cl)c1)O/N=C\c1ccncc1
    2% | -27% | / | -9 | 1.1% | 2.0 | 7%
CS(=O)(=O)c1ccc2nc(NC(=O)C3CCCO3)sc2c1 (stereo unspecified)
    19% | 15%[15.4 µM] | 4 | -3 | -0.4% | -1.8 | -1%
COc1cccc(Sc2nc(-c3ccccc3)ncc2S(C)(=O)=O)c1
    -7% | 0% | -5 | -8 | -0.8% | -2.8 | 3%
COc1ccc(CN2C(=O)N(c3ccccc3)C(=O)C2CC(=O)Nc2ccccc2)cc1OC (stereo unspecified)
    2% | -15%[15.4 µM] | 1 | -1 | / | 0.3 | 6%
Cc1ccc(-c2nn3c(C)nnc3s2)cc1NC(=O)c1ccc(OC(C)C)cc1
    ? | 15% | / | 2 | -2.1% | 7.1 | 3%
COc1ccc(CCNC(=O)CSc2nc(-c3ccco3)cc(C(F)(F)F)n2)cc1
    3% | -28% | -14 | -1 | -6.1% | -0.1 | -12%
COC(=O)c1nnn(Cc2ccccc2)c1N
    7% | -31% | -27 | 7 | -4.0% | 0.4 | 6%
CCCCN(NC(C)=O)c1nc(Cl)nc(NC(C)C)n1
    15% | ? | 7 | -1 | -1.2% | 3.8 | 8%

Structural class: those above with a thiophene ring, fused or not
The line under a structure holds: Sfp inh | gsp agonist | TRPV1 PAM | D2 potentiator | ClpP mod | Menin MLL FP FL | gsp antagonist
Cc1ccc(C(C)C)c(OCC(=O)NNC(=O)Cc2ccc(S(=O)(=O)N3CCOCC3)s2)c1
    / | -15% | / | 1 | / | / | -14%
CC1CCN(CCCn2c(=S)[nH]c3c(sc4ccccc43)c2=O)CC1
    -23% | 56%[15.4 µM] | -6 | -17 | 1.0% | 2.0 | 25%

Random excerpt: two entries already listed
The line under a structure holds: Sfp inh | gsp agonist | TRPV1 PAM | D2 potentiator | ClpP mod | Menin MLL FP FL | gsp antagonist
COc1ccc(N2CCN(C3CCCN(C(=O)CN4CCCCC4=O)C3)CC2)cc1 (stereo unspecified)
    4% | 0% | -3 | -1 | / | -3.2 | 3%
O=C(COC(=O)c1ccc(F)cc1F)Nc1cccc(S(=O)(=O)N2CCOCC2)c1
    / | 21% | -7 | -16 | -1.7% | / | 4%

From PubChem
